Cruzain noTriton = cruzain (T. cruzi) inhibition without detergent. purified cruzain, Z-FR-AMC fluorescence, no detergent. AID 1476. 200,000 tested, 2.3% active. P25779. Potency, µM, inactives show max response, negative = inhibition, actives largely listed as inhibitors; active = well fitted curve in the direction sought with a large enough effect; inconclusive = small, poorly fitted or top-dose-only effect, or another doubt; inactive = no such curve, though single readings can be large; an effect the other way counts as inactive or inconclusive;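 note: plate controls were enzyme without inhibitor for no effect and buffer without enzyme for full effect; nearly all actives have a fitted effect of over 40% in size; top concentration of the series not given in the record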
Target sequence (P25779 123-467 limits assumed): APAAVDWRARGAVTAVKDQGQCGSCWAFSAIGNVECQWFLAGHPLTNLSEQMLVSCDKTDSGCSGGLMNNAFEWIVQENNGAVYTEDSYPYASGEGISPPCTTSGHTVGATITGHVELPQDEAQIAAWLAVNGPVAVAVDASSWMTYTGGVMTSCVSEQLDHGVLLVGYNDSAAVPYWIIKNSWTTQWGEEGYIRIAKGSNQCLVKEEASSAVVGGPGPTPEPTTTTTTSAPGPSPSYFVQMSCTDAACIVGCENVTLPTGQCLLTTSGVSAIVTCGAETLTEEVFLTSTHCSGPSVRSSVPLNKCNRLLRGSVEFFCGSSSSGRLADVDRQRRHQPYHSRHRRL
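Detergent-free condition (0.00005% Triton X-100) in acetate buffer pH 5.5 with DTT. 1.5 nM enzyme and compound were pre-mixed 15 min, then 2 uM Z-FR-AMC substrate added; reaction progress from fluorescence change between first and third reads (60 s).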
Cruzain inh Det = inhibitors of Trypanosoma cruzi cruzain with detergent; Potency, µM, inactives show max response, negative = inhibition, hits mostly inhibitors; purified cruzain, Z-FR-AMC fluorescence, 0.01% Triton; AID 1478; P25779; 200,000 tested, 0.43% active; active = well fitted curve in the direction sought with a large enough effect; inconclusive = small, poorly fitted or top-dose-only effect, or another doubt; inactive = no such curve, though single readings can be large; an effect the other way counts as inactive or inconclusive;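 note: plate controls were neutral wells for no effect and buffer without enzyme for full effect; nearly all actives have a fitted effect of over 40% in size; top concentration of the series not given in the record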
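Purified cruzain (1.5 nM final) was preincubated with compounds for 15 min at room temperature in 100 mM sodium acetate pH 5.5, 5 mM DTT, 0.01% Triton X-100. Reaction started with 2 uM Z-FR-AMC; AMC fluorescence change over 60 s gave activity.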
Lassa entry inh = blocks Lassa virus binding to or entry into cells | AID 540256 | Lassa virus pseudotype entry inhibition, cell reporter; control for the full effect not named in the record | 300,000 tested, 1.2% active | Potency, µM (highest dose often 37.9 µM), for inactives: at the highest dose activity change, negative = inhibition, actives largely listed as inhibitors; active means well fitted inhibition curve with a large enough effect; inconclusive means small, poorly fitted or top-dose-only effect, or effect the other way; inactive means flat fitted curve, though single readings scatter; tested in HEK293 cells; note: % is set by controls: 0 for no effect and ±100 for the full control effect; nearly all actives have a fitted effect of over 50% in size; luciferase read-out
SARS PLpro yeast = inhibitors of SARS-CoV papain-like protease in yeast | Potency, µM (titrated, usually from 32.9 µM), without a hit: at the highest dose activity, positive = growth rescue | 330,000 tested, 0.19% active | AID 485353 | S. cerevisiae expressing SARS-CoV PLpro, growth rescue; control for the full effect not named in the record; note: 0% is about no effect; nearly all actives have a fitted effect of over 55% in size; growth read by luminescence after 48 h
MARV entry inh = blocks Marburg virus binding to or entry into cells. 300,000 tested, 1.8% active. Potency, µM (highest dose often 37.8 µM), for inactives: at the highest dose activity change, negative = inhibition, actives largely listed as inhibitors. Marburg virus pseudotyped entry inhibition, cell reporter; control for the full effect not named in the record; about a third of the inactives were read at about 46 µM; active = well fitted inhibition curve with a large enough effect; inconclusive = small, poorly fitted or top-dose-only effect, or effect the other way; inactive = flat fitted curve, though single readings scatter; tested in HEK293 cells; about a fifth of its hits are not listed in these tables; note: % is set by controls: 0 for no effect and ±100 for the full control effect; luciferase read-out
NS1 function inh = inhibitors of influenza NS1 protein function; 270,000 tested, 0.4% active; S. cerevisiae slowed by influenza A NS1, growth recovery by OD600; Potency, µM (highest dose often 46.1 µM), without a hit: at the top dose activity, positive = more growth; note: actives are rising curves; nearly all actives have a fitted effect of over 50% in size
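A cell-based growth assay was used: compounds that relieve NS1-induced slow growth of budding yeast raise OD600. Assay medium was yeast nitrogen base with ammonium sulphate and -URA supplement, pH 6.0, with 2% galactose.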
RE007 growth inh = less growth of the S. pombe RE007 Vpr strain; S. pombe RE007 Vpr strain, BacTiter-Glo ATP luminescence, 24 h; control for the full effect not named in the record; Potency, µM (highest dose often 92.2 µM), inactives show at the top dose activity change, negative = less growth; 360,000 tested, 0.21% active; AID 651644; active = well fitted falling curve with a large enough effect; inconclusive = small, poorly fitted or top-dose-only effect; inactive = no such curve, though single readings can be large or run the other way;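 note: % is set by controls: 0 for no effect and ±100 for the full control effect; nearly all actives have a fitted effect of over 50% in size; the assay follows cell death caused by Vpr and the record does not say whether a fall means rescue or toxicity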
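Fission yeast RE007 carrying one integrated HIV-1 vpr copy, seeded at OD 0.01 in PMG+AL medium with 23 nL pinned compound. Grown 24 h at 30 degrees; viability read by BacTiter-Glo luminescence after 5 min.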
StopGo reporter = lowers the luciferase signal of an FMDV 2A StopGo reporter; 410,000 tested, 1.2% active; Potency, µM (series often up to 57.9 µM), inactives show at the top dose signal change, negative = less light; AID 1159524; human cells with a luciferase reporter of 2A StopGo recoding; control for the full effect not named in the record; active = well fitted falling curve with a large enough effect; inconclusive = small, poorly fitted or top-dose-only effect; inactive = no such curve, though single readings can be large or run the other way; tested in HEK293T cells; note: % is set by controls: 0 for no effect and ±100 for the full control effect; nearly all actives have a fitted effect of over 45% in size; luciferase light after 4 h
* = called active by the depositor; ? = inconclusive; nt = not tested or not shown; & = joins results of further samples; [ ] = another dose, or the depositor's remark. Unless noted, calls come from the whole dose curve; as a rule, active means well fitted rising curve with a large enough effect; inconclusive means small, poorly fitted or top-dose-only effect; inactive means no such curve, though single readings can be large or run the other way. Potency is the fitted concentration of half-maximal effect.

SMILES | Cruzain noTriton | Cruzain inh Det | Lassa entry inh | SARS PLpro yeast | MARV entry inh | NS1 function inh | RE007 growth inh | StopGo reporter
CC(OC(=O)c1ccc(O)cc1)C(=O)Nc1ccc(Oc2ccccc2)cc1 (configuration not stated) | nt | nt | -28% | -8% | -5% | nt | 1% | -14%
COc1ccc(-c2noc(CCCC(=O)Nc3cccc(Cl)c3C)n2)cc1 | -6% | -1.8% | ? | nt | ? | nt | nt | ?
C=CCn1c(CNC(=O)c2ccco2)nnc1SCC(=O)Nc1cccc(Br)c1 | -4% | -4.3% | 17% | -1% | -8% | -2% | -10% | 0%
O=c1c2ccccc2cnn1Cc1n[nH]c(=S)n1-c1ccccc1Cl | 8% | -2.6% | 5% | 7% | 4% | -1% | -8% | -17%
O=C(Cn1nnc(-c2ccccc2)n1)NCc1ccco1 | -1% | 1.3% | 0% | -11% | -5% | -1% | 11% | -25%
CC1CCc2c(sc3[nH]c(=S)n(C)c(=O)c23)C1 (configuration not stated) | nt | nt | 5% | -3% | -2%[46.1 µM] | -1% | 8% | -6%
CN1CCN(CCOc2ccc(Cl)c(Cl)c2)CC1 | ? | -4.0% | 12% | 4% | 13% | 10% | -1% | 3%
COc1cc(/C=N/NC(=O)c2ccccn2)ccc1OC(=O)c1cccs1 | nt | nt | 5% | -6% | ? | -12% | -10% | 22%
COc1ccc(OC(C)C(=O)Nc2ccc([N+](=O)[O-])cc2)cc1 (configuration not stated) | nt | nt | ? | 4% | -29%[46.1 µM] | -2% | -12% | ?
Cc1nc2ccc(S(=O)(=O)NC(CC(C)C)C(=O)O)cc2s1 (configuration not stated) | 3% | 2.8% | 1% | 2% | 22% | 1% | 10% | 4%
CCOc1ccc(C(=O)N[C@H](C(=O)NNC(=O)c2cccs2)C(C)C)cc1 | nt | nt | ? | -14% | nt | nt | -16% | 23%
CC(=O)N1CCN(c2ccc(NC(=O)c3ccco3)cc2)CC1 | nt | nt | 28% | -3% | ? | 6% | 88% | 9%
O=C1CCCc2c1ccc1ccccc21 | nt | nt | 2% | nt | 18% | nt | -3% | 20%
CCOC(=O)C=Nc1c(N)n(C)c(=O)n(C)c1=O | -9% | -9.4% | -6% | 7% | -1% | -21% | 3% | -13%
CCOC(=O)C(CCCCCOc1ccc([N+](=O)[O-])cc1)C(=O)OCC | 2% | -4.1% | -19% | -12% | -21% | -4% | 13% | ?
COCCn1c(SCC(=O)Nc2cc(Cl)ccc2OC)nc2c([nH]c3ccccc32)c1=O | 5% | 3.2% | -5%[46.1 µM] | nt | nt | nt | nt | -17%
CC1CCCN(CC(=O)Nc2ccc(S(=O)(=O)N3CCCC3)cc2)C1 (configuration not stated) | nt | nt | nt | 3% | -14%[46.1 µM] | 9% | 7% | 6%
Cc1ccccc1NC(=S)NC(=O)COc1ccccc1C | nt | nt | 21%[46.1 µM] | -5% | -3%[46.1 µM] | 7% | -15% | 6%
Cc1ccc(S(=O)(=O)N(C)c2c(C)ccc(S(=O)(=O)Nc3ccncc3)c2C)cc1 | -2% | -2.1% | 11% | 21% | 1% | -9% | ? | -2%
Fc1cccc(CSc2ncnc3c2oc2ccccc23)c1 | 4% | -6.6% | 5% | 3% | 12% | -7% | -9% | 0%
O=C(CCl)N1CCCC1c1ccc2c(c1)OCCO2 (configuration not stated) | nt | nt | -19% | 3% | ? | 0% | -1% | -21%
O=c1cc(NCCCO)c2ccccc2o1 | 5% | 0.5% | 1% | -5% | 8% | 0% | 21% | 16%
COc1ccc(S(=O)(=O)N2CCC(C(=O)NC3CCCC3)CC2)cc1OC | nt | nt | -2% | 2% | -1% | 6% | 16% | -10%
Cc1cc(C)n(CCCNC(=O)c2cc(COc3ccc(C)c(C)c3)on2)n1 | nt | nt | 5% | 3% | 0% | -10% | 7% | -12%
Cc1ccc(-c2csc(NCCn3c(C(F)(F)F)nc4ccccc43)n2)cc1 | nt | nt | nt | -1% | nt | 8% | 7% | -18%
O=C(N/N=C/c1ccc([N+](=O)[O-])cc1)c1cccs1 | nt | nt | nt | 0% | nt | 1% | -1% | 46%[activator]
O=C(CSCc1ccc([N+](=O)[O-])cc1)Nc1cccc(C(=O)Nc2ccccc2C(=O)O)c1 | -3% | -14% | -1% | 0% | 19% | 7% | 0% | nt
Cc1ccc(C(=O)C(NC(=O)c2ccco2)Nc2sc3c(c2C(N)=O)CCCC3)cc1 (configuration not stated) | ? | -18% | nt | 1% | 7% | 7% | nt | nt
CC(=O)Nc1ccc(S(=O)(=O)NC2(C(F)(F)F)C(=O)Nc3c2c(=O)[nH]c(=O)n3Cc2cccnc2)cc1 (configuration not stated) | nt | nt | 0% | 0% | 19%[46.1 µM] | 7% | -12% | 7%
O=C(NC1CCCCCC1)c1ccc[nH]c1=S | nt | nt | -15% | -34% | 19% | nt | ? | 36%[activator]
Cc1ccc(Cn2nnc3c(=O)[nH]c(C4CCCN(S(=O)(=O)c5ccccc5F)C4)nc32)cc1 (configuration not stated) | nt | nt | -8% | 1% | -7%[46.1 µM] | 1% | 11% | 0%
CC(=O)Nc1nc2ccccc2n1CCOc1ccccc1Cl | 1% | 3.6% | ? | 1% | -17% | 4% | -15% | -26%
Nc1cc(Cl)ccc1C(=O)OCC(=O)N1CCOCC1 | nt | nt | nt | -1% | nt | -4% | -8% | 8%
CCCNC(=O)C1CN(S(=O)(=O)c2ccc(Cl)s2)c2ccccc2O1 (configuration not stated) | nt | nt | -23% | -4% | -12% | nt | -10% | -4%
O=C(NCc1ccccc1Cl)c1cccc(NC(=O)c2ccccc2)c1 | -20% | -16% | -24% | -3% | ? | -3% | ? | -1%
COc1ccc(F)cc1S(=O)(=O)Nc1ccc2c(c1)OCO2 | 9% | -1.8% | 12% | 4% | 1% | -3% | 0% | 64%[activator]
COc1cccc(NC(=O)N2CCN(c3cccc(C)c3)C(C)C2)c1 (configuration not stated) | -3% | 4.9% | ? | -14% | ? | -31% | -4% | 3%
COc1ccc(N2CCN(Cc3nc4c(c(=O)[nH]c(=O)n4C)n3Cc3cccc(Cl)c3)CC2)cc1 | nt | nt | nt | 0% | nt | 0% | 11% | -23%
CCOC(=O)C(C)n1nc(/C=C/c2ccccc2)ccc1=O (configuration not stated) | 2% | -5.9% | 9% | 2% | ? | 5% | -9% | -17%
CCn1c(SCc2nc(-c3cccs3)no2)nnc1-c1c[nH]c2ccccc12 | 7% | -2.1% | 20µM* | -11% | ? | -84% | -11% | 22µM*

Retrieved by compound from the list above (2):
SMILES | Cruzain noTriton | Cruzain inh Det | Lassa entry inh | SARS PLpro yeast | MARV entry inh | NS1 function inh | RE007 growth inh | StopGo reporter
Nc1cc(Cl)ccc1C(=O)OCC(=O)N1CCOCC1 | nt | nt | nt | -1% | nt | -4% | -8% | 8%
O=C(NC1CCCCCC1)c1ccc[nH]c1=S | nt | nt | -15% | -34% | 19% | nt | ? | 36%[activator]

New compounds follow:
SMILES | Cruzain noTriton | Cruzain inh Det | Lassa entry inh | SARS PLpro yeast | MARV entry inh | NS1 function inh | RE007 growth inh | StopGo reporter
Nc1ccc(-c2nc3ccccc3[nH]2)cc1 | -30% | -2.7% | nt | 0% | nt | -13% | -9% | 10%
Brc1cccc(-c2nnc(SCc3nc4ccccc4[nH]3)o2)c1 | 13µM* | 14µM* | -1% | -6% | -3% | -57% | -26% | ?
CCCNC(=O)CN1C(=O)COc2ccc(S(=O)(=O)N3CCC(C)CC3)cc21 | 7% | -2.5% | 15%[46.1 µM] | nt | 6%[46.1 µM] | nt | nt | -15%
CC(=O)Nc1ccc(N(C(=O)c2cnccn2)C(C(=O)NC2CCCCC2)c2ccc(F)cc2)cc1 (configuration not stated) | nt | nt | nt | 26% | -4%[46.1 µM] | 6% | -7% | 12%
Cc1nn(-c2ccccc2)c2sc(C(=O)OCn3nnc4ccccc4c3=O)cc12 | 25µM* | -4.2% | -4% | 7% | 21%&21% | -19%&15% | 2% | -16%
CCOC(=O)CN(C)Cc1cn[nH]c1-c1ccc2cc(OC)ccc2c1 | nt | nt | ? | 3% | ? | -5% | -7% | -13%
O=C(NCCc1cccs1)C1CCC(=O)N(CCc2cccc(F)c2)C1 (configuration not stated) | nt | nt | nt | 2% | nt | -2% | 11% | -6%
Cc1cccc(N2CCN(C(=O)c3cnn(-c4ccccc4Cl)c3C3CCN(C(=O)OC(C)(C)C)CC3)CC2C)c1 (configuration not stated) | -12% | -0.6% | ? | nt | nt | nt | nt | -19%
CSc1ncccc1C(=O)OCC(=O)c1cc(C)n(C)c1C | nt | nt | -19% | 1% | ? | nt | -1% | 4%
CCOC(=O)C1C(=O)C=C(c2ccc(OC)cc2)CC1c1ccco1 (configuration not stated) | 1% | ? | -28% | 1% | -19% | -89% | 12% | -8%
C=CCNC(=S)NNC(=O)C(CC(C)C)CC(C)O (configuration not stated) | nt | nt | 8% | 1% | 9% | 4% | -6% | 1%
Cc1ccc(/C=C2\SC(N)=NC2=O)s1 | ? | -6.8% | 1% | -8% | 12% | -1% | 15% | -8%
COc1ccc(CC(=O)Oc2cc(C)ccc2C)cc1 | nt | nt | 6%[46.1 µM] | 1% | 16%[46.1 µM] | -1% | 27% | -13%
CCCN(C(=O)COC(=O)Cn1c(=O)oc2ccccc21)c1c(N)n(Cc2ccccc2)c(=O)[nH]c1=O | nt | nt | -2% | 6% | -8% | nt | 1% | -5%
CCOC(=O)/C(=C\c1ccc(OC(F)F)cc1)C1=Nn2c(nnc2-c2ccc(Cl)cc2)SC1 | -1% | -5.0% | ? | -21% | ? | 10% | 24% | 13µM*
C/C(=N\Nc1ccc(C(=O)O)cc1)c1ccc(Cl)s1 | nt | nt | nt | 2% | nt | -19% | 0% | 0%
COc1ccc(N=CC2=C(O)CC(C)(C)CC2=O)cc1OC | nt | nt | 6% | -2% | 11% | -30% | -7% | 2%
c1ccc(-c2noc(CC3CCCCC3)n2)cc1 | nt | nt | 8%[46.1 µM] | 0% | ? | 7% | -11% | 0%

Bioassay records from PubChem.

Compounds were not picked by outcome. About 4.7% of those tested had a hit in this group.
